# Vaccinia mCherry: vaccinia inhibition (mCherry reporter) | Vaccinia virus mCherry reporter infection, fluorescence; about a quarter of the inactives have no number | Potency, µM (titrated, usually from 36.5 µM), for inactives: top-dose activity change, negative = inhibition, hits mostly inhibitors | hit rate 0.63% among 310,000; active = well fitted inhibition curve with a large enough effect; inconclusive = small, poorly fitted or top-dose-only effect; inactive = no such curve, though single readings can be large or run the other way; tested in A549 cells; further: nearly all actives have a fitted effect of over 35% in size; inactives centre near -10
# Vaccinia Venus: inhibitors of vaccinia virus (Venus reporter) | Vaccinia virus Venus reporter expression, fluorescence | Potency, µM (titrated, usually from 36.5 µM), for the others: at the highest dose activity change, negative = inhibition, actives largely listed as inhibitors | hit rate 0.46% among 330,000; active means well fitted inhibition curve with a large enough effect; inconclusive means small, poorly fitted or top-dose-only effect; inactive means no such curve, though single readings can be large or run the other way; tested in A549 cells; further: nearly all actives have a fitted effect of over 30% in size; inactives centre near -10
# An asterisk follows results filed as active; i = inactive; ? = inconclusive; . = not tested or not shown; & = joins results of further samples; [ ] = remark or other dose. On the % scale 0 is the no-effect control and ±100 the full control effect; potency means the concentration at half of the fitted maximal effect.
SMILES,Vaccinia mCherry,Vaccinia Venus
O=C(Cn1cc(S(=O)(=O)Cc2cccc(Cl)c2)c2ccccc21)Nc1ccccc1Cl,-24.5%,-15.6%
CC(C)(C)c1cc(C(=O)C[n+]2ccc(C(=O)NCCCO)cc2)cc(C(C)(C)C)c1O,?,-9.7%
N#CC(C(N)=O)=C1CCCCC1,i,-11.4%
CC#CC(=O)N1CCC(n2nccc2NC(=O)CCc2ccccc2)CC1,-3.8%,-5.5%
Cc1ccc(C)c(CSc2ccc3nnc(-c4ccccn4)n3n2)c1,-13.1%,-16.0%
Cc1ccc(S(=O)(=O)N2CCCc3cc(NS(=O)(=O)c4cc(C)ccc4C)ccc32)cc1,-26.0%,?
CC(C)(C)OC(=O)N1CCC(c2c(C(=O)N3CCN(C(=O)c4ccco4)CC3)cnn2-c2ccc(F)cc2)CC1,i,-9.5%
COC(=O)C1=C(c2ccc(F)cc2F)C[C@@H]2CC[C@H]1N2C(=O)NC(C)C,i,-7.5%
O=C(COC(=O)C1CCCC1)NCc1ccc(Cl)cc1,i,-14.0%
COc1ccc(S(=O)(=O)N2Cc3ccccc3CC2C(=O)Nc2ccc(C)cc2C)cc1OC (stereo not drawn),-2.7%,2.3%
COc1ccc(C2C(C#N)=C(N)Oc3cc(N)ccc32)cc1OC (stereo not drawn),?,-15.4%
CN(C)c1cc(-c2ccc([N+](=O)[O-])cc2)oc(=O)c1Cl,-18.2%,-21.2%
C[C@@H]1CN([C@H](C)CO)C(=O)c2cc(Br)cnc2O[C@@H]1CN(C)C(=O)Nc1cccc(F)c1,-3.5%,-14.9%
CC1(C)C2CC=C(/C=N/NC(=O)c3ccccc3O)C1C2 (stereo not drawn),?,-22.6%
CCOc1cc(C=O)ccc1OCc1cc(=O)n2cc(C)ccc2n1,4.1%,6.6%
Cn1cc(CN2CCC(C(=O)N3CCCCC3)CC2)c(-c2ccccc2F)n1,-6.1%,-9.4%
CC1(C(=O)NS(=O)(=O)Cc2ccccc2C(F)(F)F)CCN1C(=O)c1cccc(F)c1 (stereo not drawn),i,-4.9%
Cc1cccc(OCC(=O)Nc2c(C)ccc3nsnc23)c1C,?,?
COc1cc(C(=O)N2CCCCC2c2cc(C(=O)Nc3ccccc3)no2)cc(OC)c1C (stereo not drawn),i,-14.6%
CCc1ccc(NC(=O)COc2coc(CN3CCN(c4ccccc4)CC3)cc2=O)cc1,-8.1%,-5.0%
COCCN(CC(=O)Oc1ccccc1P(=O)(OC)OC)Cc1ccccc1,i,-0.3%
COc1cccc(NC(=O)N2CCC(N3CCCCC3)CC2)c1,.,-3.7%
COc1ccc(NC(=O)C(Cc2ccccc2)n2cccc2)c(OC)c1 (stereo not drawn),-17.0%,-14.7%
CCOc1ccc2nc(N3CCN(C(=O)c4ccc5c(c4)CCCC5)CC3)sc2c1,-23.0%,-24.2%

# Reformatted with each value named: entries from further up
Compound: CCc1ccc(NC(=O)COc2coc(CN3CCN(c4ccccc4)CC3)cc2=O)cc1
  Vaccinia mCherry: -8.1% | Vaccinia Venus: -5.0%

Compound: COCCN(CC(=O)Oc1ccccc1P(=O)(OC)OC)Cc1ccccc1
  Vaccinia mCherry: i | Vaccinia Venus: -0.3%

# The list goes on.
SMILES,Vaccinia mCherry,Vaccinia Venus
Cc1cc(Br)c2c(c1)/C(=C/C(=O)c1cccs1)C(=O)N2,5.3%,-2.1%
O=C(N/N=C\c1cccs1)c1sccc1-n1cccc1,-9.3%,-2.0%
CCOC(=O)[C@]12CCCC=C1N(CCC1=CCCCC1)C(=O)[C@H](CC(=O)NCCc1ccccc1OC)C2,-3.8%,?
CC(C)CNC(=O)[C@@H]1CSC2c3ccccc3C(=O)N21 (stereo partly drawn),-3.9%,-2.4%
CC(C)(C)Cc1nnc(NC(=O)Cc2cccs2)s1,1.9%,-3.9%
C=CCn1cccc(C(=O)Nc2ccc(C)c(C)c2)c1=O,0.8%,2.2%
C#CCNC(=O)C1=C[C@H](c2ccc(C(F)(F)F)cc2)C[C@H](OCCCCO)O1,i,-3.2%
Cn1cc(C(=O)N/N=C/c2cccs2)c2ccccc21,?,-21.4%
O=C(CSc1nc2scc(-c3ccccc3)c2c(=O)[nH]1)Nc1ccccc1,-7.4%,-20.4%
O=C1NN=COc2ccccc21,-25.3%,-4.5%
CC1CCN(CCOc2ccc(OCc3ccccc3)cc2)CC1,?,-22.1%
COc1ccc2c(c1)[n+](=O)c(C(C)=O)c(C)n2[O-],i,-7.8%
O=C1CN2Cc3c(ccc(Cl)c3Cl)N=C2N1,-15.3%,-13.0%
O=CNc1cc(-c2ccsc2)cn2c(-c3ccccc3)cnc12,-19.2%,-12.7%
O=C(N/N=C/c1coc2ccccc2c1=O)c1cn(-c2ccccc2)nc1-c1ccc(F)cc1,i,-8.4%
COc1ccc(C(=O)NCCc2c[nH]c3ccccc23)cc1,i,-4.9%
COC1OC(c2ccccc2)=C(c2ccc(C(N)=O)cc2)c2ccc(F)cc21 (stereo not drawn),48.0%[activator],8.1%
O=C1CCN(CCc2ccccc2)CCN1[C@H](COc1ccccc1)Cc1ccccc1,-12.1%,-29.8%&-24.6%
Cc1cccnc1NC(=O)CCNC(=O)c1ccc(Cl)cc1,i,-0.5%
O=C(OCN1C(=O)c2ccccc2C1=O)c1cc(S(=O)(=O)N2CCOCC2)ccc1F,-16.7%,-5.0%
O=C(CCn1cccc(C(F)(F)F)c1=O)Nc1cccc(C(F)(F)F)c1,i,-4.8%
Cc1ccccc1C(=O)N/N=C1\SCC(=O)N1Cc1ccco1,i,-10.4%
COc1cc(C(c2c(C)[nH][nH]c2=O)c2c(C)[nH][nH]c2=O)cc(OC)c1OC,-1.6%,-6.5%
O=C(Nc1nn[nH]n1)c1cccc([N+](=O)[O-])c1,3.2%,-2.1%
O=C(COC(=O)c1cncc(Br)c1)NCc1ccccc1Cl,-10.4%,-5.9%
O=C(c1ccco1)N1CCN(S(=O)(=O)c2ccc(S(=O)(=O)NC3CCCCC3)cc2)CC1,-2.2%,-5.6%
Cc1cc(=O)oc2cc(OCc3ccc(S(=O)(=O)N4CCOCC4)cc3)ccc12,-1.0%,-7.8%
Nc1nc2c(nnn2Cc2ccc(Cl)c(Cl)c2)c(=O)[nH]1,-11.5%,-14.1%
O=C(Nc1cccc(Cl)c1)c1ccc(F)c(S(=O)(=O)NCc2cccs2)c1,-18.5%,?
COc1cccc(NC(=O)N(Cc2c[nH]c3ccccc23)C2CCCCC2)c1,-9.5%,-7.7%
Cc1ccc(C(=O)OCC(=O)Nc2cccc(S(=O)(=O)N3CCCCC3)c2)s1,-6.3%,-12.9%
O=C(NC1CCCCC1)C(c1ccc(F)cc1)N(C(=O)c1cccs1)c1ccc2c(c1)OCO2 (stereo not drawn),?,-1.0%
CCOC(=O)[C@H]1[C@H]2COc3ccc(OC)cc3[C@@H]2N2C(=O)CN(CC3CCCO3)C(=O)[C@@]12C (stereo partly drawn),-22.5%,-8.6%
COc1ccc(-n2c(=S)[nH]c3cc(C(=O)NCc4ccco4)ccc3c2=O)c(OC)c1,-22.9%,-16.3%
Cc1ccc(NS(=O)(=O)c2c(C)nc3sccn3c2=O)c(C)c1,-7.4%,-16.4%
Oc1c(CN2CCN(c3ccccn3)CC2)cc(Cl)c2cccnc12,.,11.2µM*
O=C(O)CCCCCNC(=O)Nc1ccc2c(c1)OCCO2,.,-12.2%
FC(F)(F)c1nc2ccccc2n2c(-c3c(Cl)cccc3Cl)nnc12,.,-19.5%
CCCCN(C)CCNC(=O)c1c(C)oc2ncnc(N3CCOCC3)c12,i,-9.3%
CCc1nc2ccc(C(=O)NCCOc3ccc(OC)cc3)cn2c1N(C)Cc1ccc(OC)cc1,-5.7%,-7.6%
Oc1ccc(Cc2ccccc2)c2cccnc12,?,?
O=C(O)/C=C\C(=O)Nc1ccccc1C(=O)N1CCC(O)(c2ccc(Cl)cc2)CC1,i,-2.5%
CN(c1nc(-c2ccccc2)cs1)C1CCS(=O)(=O)C1 (stereo not drawn),-9.3%,-21.2%
O=C(O)C1C2CCC(C2)C1C(=O)NCCc1cccc(Cl)c1 (stereo not drawn),-4.6%,-28.0%
CN(Cc1nccs1)C(=O)C1CCC(=O)N(Cc2ccccc2F)C1 (stereo not drawn),i,-5.9%
CCOc1ncccc1C(=O)Nc1ccc(S(=O)(=O)N2CC(C)CC(C)C2)cc1 (stereo not drawn),-19.8%,19.6%
Brc1ccc(-c2nnc(-c3cccc(Br)c3)o2)cc1,.,-2.7%
O=C(Cc1ccc(F)cc1)Nc1ccc2[nH]ncc2c1,-0.9%,-14.7%

# An excerpt of these results, field by field.
CCCCN(C)CCNC(=O)c1c(C)oc2ncnc(N3CCOCC3)c12
  Vaccinia mCherry: i
  Vaccinia Venus: -9.3%

O=C(O)/C=C\C(=O)Nc1ccccc1C(=O)N1CCC(O)(c2ccc(Cl)cc2)CC1
  Vaccinia mCherry: i
  Vaccinia Venus: -2.5%

O=C(O)C1C2CCC(C2)C1C(=O)NCCc1cccc(Cl)c1 (stereo not drawn)
  Vaccinia mCherry: -4.6%
  Vaccinia Venus: -28.0%

CCOc1ncccc1C(=O)Nc1ccc(S(=O)(=O)N2CC(C)CC(C)C2)cc1 (stereo not drawn)
  Vaccinia mCherry: -19.8%
  Vaccinia Venus: 19.6%

# Remaining list, next part
SMILES,Vaccinia mCherry,Vaccinia Venus
Cc1ccc(CCNC(=O)c2cccc(Nc3nc4ccccc4nc3-n3nc(C)cc3C)c2)cc1,-6.9%,-14.7%
Cc1cc(C)c(C(=O)NCC(=O)c2ccccc2)c(C)c1,-13.3%,-6.6%
O=C(NCc1ccc2c(c1)OCO2)c1cc(S(=O)(=O)N2CCCCC2)ccc1F,i,-4.9%
CN1C2C=C3C(C#N)=C(N)C(C#N)(C#N)[C@@H](c4ccc(Cl)cc4)[C@@H]3C1CC2 (stereo partly drawn),.,-3.5%
Cn1c(=O)oc2cc(S(=O)(=O)N3CCC(C(=O)N4CC=C(c5ccccc5)CC4)CC3)ccc21,-14.5%,-15.5%
COc1ccc(OC)c(C(=O)c2ccc(C(=O)Nc3ccccc3)cc2)c1,-17.7%,-20.2%
COc1cc(/C=N/NC(=O)c2ccc3nc[nH]c3c2)ccc1O,6.6%,-5.3%
O=[N+]([O-])c1ccc(-c2nc(-c3ccncc3)no2)cc1,i,-22.0%
CNC(=O)NC(=O)C(NC1CCCc2ccccc21)c1ccccc1 (stereo not drawn),i,-6.8%
CCCCC(=O)Nc1cccc(NC(=S)NC(=O)Cc2ccccc2)c1,-10.4%,-8.5%
Cc1ccc2c(c1)C1(OCCCO1)C(=O)N2,-7.6%,-13.7%
COc1cc(NC(=O)c2cccc(Cl)c2)c(OC)cc1NC(=O)CN1CCOCC1,.,-13.0%
O=C(O)c1sc2cccc(Cl)c2c1Cl,2.2%,0.3%
Cc1ccc(F)c(C(=O)N2CCCC(C)(C(=O)NS(=O)(=O)C3CC3)C2)c1F (stereo not drawn),-3.8%,-9.9%
Cc1ccc(C)c(N2CCN(C(=O)Cc3ccc(-n4c(=O)[nH]c5ccsc5c4=O)cc3)CC2)c1,?,-24.5%
CC(Oc1ccc(Cl)cc1)C(=O)Nc1ccccc1N1CCOCC1 (stereo not drawn),-12.4%,-6.6%
COc1ccccc1NC(=O)/C(=C\c1cccnc1)NC(=O)c1ccccc1,-12.3%,-0.6%
CC(=O)c1ccc(NC(=O)CSc2n[nH]c(-c3cccnc3)n2)cc1,i,-6.6%
CC(=O)c1cc(-c2ccccc2)n(CCC(=O)NCCc2ccccc2)c1C,-8.8%,-4.4%
COc1ccc(-c2noc(CCC(=O)NC3CCCC3)n2)cc1,-13.6%,5.3%
C[N+](C)(C)CC(O)CC(=O)[O-] (stereo not drawn),-13.8%,-8.3%
COc1ccc(Oc2coc3cc(OC(=O)/C=C/c4ccc(F)cc4)ccc3c2=O)cc1,-14.3%,-9.6%
Cc1onc(-c2ccccc2Cl)c1C(=O)Nc1nnc(-c2ccc(F)cc2)s1,i,-15.4%
COc1ccc(-n2nnnc2C2CCN(S(=O)(=O)c3ccc(C(C)(C)C)cc3)CC2)cc1,-3.2%,-10.3%
O=C(NC1CCN(C(=S)Nc2ccc(Cl)cc2)CC1)C1CCCCC1,9.6%,-6.8%
COCCNC(=O)C1CCCN(C(=O)c2csc3ccccc23)CC1 (stereo not drawn),i,-0.9%
CC(=O)N1CCN(S(=O)(=O)c2cccc(C(=O)Nc3nc4c(s3)CCCC4)c2)CC1,.,?
O=C(NN=C(Cc1ccccc1)Cc1ccccc1)c1ccccc1O,?,-18.4%
CCCCc1ncc(CN2CCC(n3nccc3NC(=O)c3ccccc3Cl)CC2)[nH]1,-5.7%,-11.8%
Cc1cc(Nc2cccc([N+](=O)[O-])c2)n2c(nc3ccccc32)c1C#N,?,?
OCC[C@H]1C[C@H](O)[C@@H](O)[C@]2(Cc3ccccc3O2)O1,-20.1%,-10.6%
O=C(COC(=O)c1cc(-c2cccc(Br)c2)nc2ccccc12)NCC1CCCO1 (stereo not drawn),-1.1%,-4.7%
CCOc1ccccc1CNC(=O)c1ccc(CS(=O)Cc2cccc(Cl)c2)o1 (stereo not drawn),-15.6%,-8.4%
Cc1ccccc1NC(=S)N/N=C1\CC(C)(C)Oc2ccc(O)cc21,?,-20.7%
CCc1ccc(-n2nc3cc(C)c(NC(=O)c4cccc5ccccc45)cc3n2)cc1,-10.7%,-14.0%
CC1CCN(CCc2nc3cc(NS(=O)(=O)c4ccccc4)ccc3n2C)CC1,?,-22.9%
CCN(CC)P(=O)(Nc1ccc(C)cc1Br)c1ccc(N(C)C)cc1NC(=O)c1ccco1 (stereo not drawn),-12.8%,-2.1%

# Screening data as filed in PubChem BioAssay.
